Compound activity (PubChem)
NPR1 antag: human Npr1 receptor antagonism. HEK293 hNpr1 GloSensor cGMP, ANP-stimulated luminescence. Potency, µM (doses to about 46.3 µM), inactives show top-dose activity change, negative = inhibition, actives largely listed as inhibitors. AID 1347048. 1.6% of 76,000 active; active = well fitted inhibition curve with a large enough effect; inconclusive = small, poorly fitted or top-dose-only effect; inactive = no such curve, though single readings can be large or run the other way;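 also: nearly all actives have a fitted effect of over 60% in size; nearly all hits also lower the signal before the agonist is added; a reference antagonist and vehicle were the controls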
Target sequence (P16066 whole entry, looked up): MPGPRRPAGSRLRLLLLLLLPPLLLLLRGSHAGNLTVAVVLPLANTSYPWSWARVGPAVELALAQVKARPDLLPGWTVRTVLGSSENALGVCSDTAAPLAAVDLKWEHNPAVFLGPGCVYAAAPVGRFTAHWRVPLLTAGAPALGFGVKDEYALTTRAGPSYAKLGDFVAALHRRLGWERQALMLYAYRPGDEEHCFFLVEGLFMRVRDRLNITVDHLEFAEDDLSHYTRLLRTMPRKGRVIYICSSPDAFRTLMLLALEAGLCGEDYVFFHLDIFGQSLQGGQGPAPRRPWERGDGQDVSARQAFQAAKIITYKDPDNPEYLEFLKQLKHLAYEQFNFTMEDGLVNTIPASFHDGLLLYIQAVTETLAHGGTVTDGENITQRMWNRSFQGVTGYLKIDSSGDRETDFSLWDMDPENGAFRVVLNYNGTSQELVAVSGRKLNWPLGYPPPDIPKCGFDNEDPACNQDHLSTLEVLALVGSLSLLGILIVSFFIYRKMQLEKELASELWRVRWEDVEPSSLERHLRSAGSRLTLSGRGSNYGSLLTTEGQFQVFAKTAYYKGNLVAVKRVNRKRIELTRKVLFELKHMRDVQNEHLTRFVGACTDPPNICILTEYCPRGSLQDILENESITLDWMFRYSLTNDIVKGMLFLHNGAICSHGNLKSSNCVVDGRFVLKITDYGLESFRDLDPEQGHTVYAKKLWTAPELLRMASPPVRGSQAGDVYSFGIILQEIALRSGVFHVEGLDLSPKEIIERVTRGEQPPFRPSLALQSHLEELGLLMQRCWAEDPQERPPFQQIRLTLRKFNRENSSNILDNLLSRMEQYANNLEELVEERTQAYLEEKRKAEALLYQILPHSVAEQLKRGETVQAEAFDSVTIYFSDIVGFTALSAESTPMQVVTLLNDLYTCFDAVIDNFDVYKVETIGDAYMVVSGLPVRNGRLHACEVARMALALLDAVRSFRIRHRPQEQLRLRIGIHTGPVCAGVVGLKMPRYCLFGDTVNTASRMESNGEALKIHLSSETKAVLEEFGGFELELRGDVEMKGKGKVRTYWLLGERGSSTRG
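HEK293 cells stably expressing human Npr1 and cGMP GloSensor pGS-40F, loaded 2 h with 2% GloSensor reagent, given compound 30 min at room temperature. Luminescence read before and 20 min after 0.1 nM hNppA.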
* hit, by the source's call; [ ] = another dose, or the depositor's remark. % is scaled to controls: 0 for no effect and ±100 for the full control effect; potency is read from the fitted curve at half-maximal effect. Some of the compounds tested (hit frequency here may not be typical).

CCN1C(=O)CCC2(C(=O)N3CCc4ccccc4C3)CCCC=C12 (stereo not drawn) was read as NPR1 antag -17%.
Screening CC(=O)N1CCC2(CC1)OC(=O)N(Cc1ccccc1)C2(C)c1cccnc1 (stereo not drawn) returned NPR1 antag 6%[70.6 µM].
O=c1[nH]c(C2CCCN(Cc3ccccc3)C2)nn1-c1ccc(Cl)cc1 (stereo not drawn) was read as NPR1 antag 14%.
Screening COc1ccccc1NC(=O)CN1CCC(O)(c2ccc(C)cn2)CC1 returned NPR1 antag 5%.
For COCCn1ncc(N2CCCC(CC(=O)N(C)CCc3ccccn3)C2)cc1=O (stereo not drawn) the results were NPR1 antag 3%.
Screening Cc1noc2c(N3CCC(c4ccccc4)CC3)cc(-c3cccnc3)nc12 returned NPR1 antag 4%[70.6 µM].
Screening N#Cc1ccccc1S(=O)(=O)N[C@H]1CO[C@H]2[C@@H]1OC[C@H]2OC(=O)NC1CCCCC1 returned NPR1 antag 1%.
Screening Cc1nc(NCCn2ncc3ccccc3c2=O)cc(C2CC(O)C2)n1 (stereo not drawn) returned NPR1 antag 0%.
Screening CCc1noc(-c2cn(C3CCN(C(=O)c4cc(F)ccc4F)CC3)nn2)n1 returned NPR1 antag -1%.
For CCc1noc(-c2cccn3c(CNC(=O)c4ccccc4OC)nnc23)n1 the results were NPR1 antag -10%.
Screening CCN(CC)Cc1cnc2c(C(=O)NC[C@@H](C)O)cnn2c1 returned NPR1 antag 8%.
Screening Cc1oc2c(c1C(=O)N(C)CC(=O)N1CCOCC1)CN(Cc1ccc(F)cc1)CC2 returned NPR1 antag -3%.
Cc1ccc(C(=O)NCCOc2nonc2C)cc1N1CCNC1=O was read as NPR1 antag -2%.
CC(C)CN1C(=O)COC[C@@H]1[C@H](O)c1ccc(NC(=O)c2ccc3c(c2)OCO3)cc1 was read as NPR1 antag -1%[70.6 µM].
For COc1ccc(CC(=O)N2CC[C@@H](CC(=O)O)[C@@H](CCN3CCC[C@H]3C(N)=O)C2)cc1 the results were NPR1 antag 3%[70.6 µM].
For CCc1cccc(NC(=O)c2nnn3cc(C)[nH]c(=O)c23)c1 the results were NPR1 antag 6%.
Screening COCc1nnc(NC(=O)CC[C@H]2NC(=O)c3ccccc3NC2=O)s1 returned NPR1 antag -1%.
For Cc1noc(-c2ccccc2Cl)c1C(=O)NCc1ccc(F)cc1F the results were NPR1 antag -11%.
For CN1CC(=O)N(c2ccccc2)Cc2c(NCc3ccc(F)cc3)ncnc21 the results were NPR1 antag 2%.
For COCC(=O)NCCC1CCN(C(=O)Nc2ccc(F)cc2)CC1 the results were NPR1 antag 2%.
`Cc1ccccc1C(=O)N1CCC2(CC1)NC(=O)N(c1cccc(F)c1)N2` gave NPR1 antag -6%.
`COCCN1Cc2nc(Nc3ccc(C(F)(F)F)cc3)ccc2OCC1=O` gave NPR1 antag -23%[70.6 µM].
Screening CN1CCN([C@H]2[C@@H]3OC[C@@H](O3)[C@@H](NCc3ccc(-c4ccccc4)cc3)[C@@H]2O)CC1 returned NPR1 antag 0%[70.6 µM].
Screening COc1ccccc1-c1ccc2ncc(Nc3cccc(N[S+](C)(=O)[O-])c3)n2n1 returned NPR1 antag -20%[70.6 µM].
`COc1ccc(NC(=O)Cn2cccc2-c2nc(-c3ccc4c(c3)OCO4)no2)cc1OC` gave NPR1 antag 5%.
`CC(=O)N1CCC(Cc2noc(C3CCOCC3)n2)C1` (stereo not drawn) gave NPR1 antag 0%.
CC(C)(C)CC(=O)N1CC[C@@H](CC(=O)O)[C@@H](CCN2CCN(c3cccc(C(F)(F)F)c3)CC2)C1 was read as NPR1 antag 5%.
For O=C(CN1CCCCCC1)NCC1Cn2cccc2C(=O)N1Cc1ccccc1 (stereo not drawn) the results were NPR1 antag -14%.
C1=C(CCNc2ncncc2-c2nc(-c3ccccc3)no2)CCCC1 was read as NPR1 antag -3%.
Screening O=C(NC1CC1)c1cccn2nccc12 returned NPR1 antag 33%[activator][70.6 µM].
For CN(C)Cc1cn(C[C@H]2C[C@@H](NC(=O)Nc3ccc4c(c3)OCCO4)[C@H](O)[C@@H]2O)nn1 the results were NPR1 antag 3%.
`CN1C(=O)CC(C(=O)O)C12CCN(Cc1nc(C(=O)O)co1)CC2` (stereo not drawn) gave NPR1 antag 1%.
Screening N#Cc1ccc(CN2CCC[C@H]2c2nc(-c3ccnc(N4CCOCC4)c3)no2)cc1 returned NPR1 antag inconclusive.
Cc1cc(=O)n(CC(=O)Nc2ccc(C(F)(F)F)cc2)c(N2CCc3ccccc3C2)n1 was read as NPR1 antag -6%.
`Nc1nc(C2CC(NC(=O)CCc3nc4ccc(F)cc4[nH]3)C2)cc(=O)[nH]1` (stereo not drawn) gave NPR1 antag -2%.
COCCn1cc2c3c(cccc31)CN(C(=O)c1cccc(C(F)(F)F)c1)CC2 was read as NPR1 antag -21%.

Copied from above (twelve entries):
CCN1C(=O)CCC2(C(=O)N3CCc4ccccc4C3)CCCC=C12 (stereo not drawn) was read as NPR1 antag -17%.
Screening CC(=O)N1CCC2(CC1)OC(=O)N(Cc1ccccc1)C2(C)c1cccnc1 (stereo not drawn) returned NPR1 antag 6%[70.6 µM].
O=c1[nH]c(C2CCCN(Cc3ccccc3)C2)nn1-c1ccc(Cl)cc1 (stereo not drawn) was read as NPR1 antag 14%.
Screening COc1ccccc1NC(=O)CN1CCC(O)(c2ccc(C)cn2)CC1 returned NPR1 antag 5%.
For COCCn1ncc(N2CCCC(CC(=O)N(C)CCc3ccccn3)C2)cc1=O (stereo not drawn) the results were NPR1 antag 3%.
Screening Cc1noc2c(N3CCC(c4ccccc4)CC3)cc(-c3cccnc3)nc12 returned NPR1 antag 4%[70.6 µM].
Screening N#Cc1ccccc1S(=O)(=O)N[C@H]1CO[C@H]2[C@@H]1OC[C@H]2OC(=O)NC1CCCCC1 returned NPR1 antag 1%.
Screening Cc1nc(NCCn2ncc3ccccc3c2=O)cc(C2CC(O)C2)n1 (stereo not drawn) returned NPR1 antag 0%.
Screening CCc1noc(-c2cn(C3CCN(C(=O)c4cc(F)ccc4F)CC3)nn2)n1 returned NPR1 antag -1%.
For CCc1noc(-c2cccn3c(CNC(=O)c4ccccc4OC)nnc23)n1 the results were NPR1 antag -10%.
Screening CCN(CC)Cc1cnc2c(C(=O)NC[C@@H](C)O)cnn2c1 returned NPR1 antag 8%.
Screening Cc1oc2c(c1C(=O)N(C)CC(=O)N1CCOCC1)CN(Cc1ccc(F)cc1)CC2 returned NPR1 antag -3%.

New compounds follow:
Screening COc1ccc(C(=O)NC2CCN(c3cnn(C)c(=O)c3)CC2)c(OC)n1 returned NPR1 antag -2%.
CCNC(=O)N1CCCCC1c1noc(COCC2CC2)n1 (stereo not drawn) was read as NPR1 antag 1%.
`COCC1CN(S(=O)(=O)c2cc(F)ccc2C)CC12CCNCC2` (stereo not drawn) gave NPR1 antag 1%.
`CC(C)NC(=O)c1ccccc1OCC1CCCN(Cc2ccc(F)cc2)C1` (stereo not drawn) gave NPR1 antag 4%.
For COCCN1C(=O)c2cccn2CC1CNS(=O)(=O)Cc1ccccc1F (stereo not drawn) the results were NPR1 antag -16%.
Screening O=C(c1n[nH]c(=O)c2ccccc12)N1CCC(Cc2noc(-c3ccncc3)n2)C1 (stereo not drawn) returned NPR1 antag -11%.
For Cc1cn2nc(C(=O)N3CCC(C(=O)NC4CCCC4)CC3)cc2c(=O)[nH]1 the results were NPR1 antag -9%.
For CCNC(=O)N[C@H]1[C@H](O)[C@@H](N(C)CCc2ccccn2)[C@@H]2OC[C@H]1O2 the results were NPR1 antag 6%[70.6 µM].
`CN(C)c1ncc2c(n1)C(C)(C(=O)NCc1cccc(Cl)c1)CCC2` (stereo not drawn) gave NPR1 antag -22%[70.6 µM].
Screening COc1cc(Cl)ccc1C(=O)NCc1nnc2c(-c3nc(C4CC4)no3)cccn12 returned NPR1 antag -9%.
COc1ccc(C(=O)N2CCC3(CC2)CC(O)CCO3)c(C)c1 (stereo not drawn) was read as NPR1 antag -1%.
Screening O=C(NCc1cccnc1)[C@@H]1C[C@@H](O)CN1C1CCN(C(=O)CN2CCCCCC2)CC1 returned NPR1 antag 1%.
For Cc1ccc(CN2CCCCCNC(=O)CC2c2ccccc2)s1 (stereo not drawn) the results were NPR1 antag -16%.
Screening CC(=O)N1CCC(Nc2cc(-c3ccc(Cl)cc3)nc3c(C)noc23)CC1 returned NPR1 antag 0%[70.6 µM].
O=C(COc1ccc(F)cc1)N1CCCC(n2cc(-c3nc(C4CC4)no3)nn2)C1 (stereo not drawn) was read as NPR1 antag -3%.
Cc1cc(C)c(S(=O)(=O)N2CCCC2c2nncn2Cc2ccncc2)c(C)c1 (stereo not drawn) was read as NPR1 antag -1%.
`COc1ccc(OCC2(C)COc3ccc(C(=O)N(C)Cc4ccccc4)cc3N2)cc1` (stereo not drawn) gave NPR1 antag -22%[70.6 µM].
Cn1nccc1CN1CCC2(CC1)COc1ccccc1NC2=O was read as NPR1 antag 13%[70.6 µM].
`CCC(=O)NCC1c2cc(OC)c(OC)cc2CCN1C(=O)Nc1ccccc1` (stereo not drawn) gave NPR1 antag -8%.
Screening O=C(CCC(=O)N1CCn2nc(Cc3ccccc3)cc2C1)NC1CCCC1 returned NPR1 antag 5%.
O=C(c1ccco1)N1CCC2(CC1)CC(N1CCN(c3ccccn3)CC1)CCO2 (stereo not drawn) was read as NPR1 antag -2%.
For CCOc1ccc(NC(=O)c2nnn3c2COC(c2ccc(Cl)cc2)C3)cc1 (stereo not drawn) the results were NPR1 antag 7%.
Cc1cc(Cl)ccc1OCC(=O)N1CCC(c2n[nH]c(=O)n2-c2ccccc2)CC1 was read as NPR1 antag 8%.
Screening Cc1ccsc1CN1C[C@@H](NC(=O)c2cccnc2)C[C@H]1CO returned NPR1 antag -6%.
For CN(Cc1cnccn1)C(=O)C1CCCN(C2CCN(C(=O)C3CC3)CC2)C1 (stereo not drawn) the results were NPR1 antag 7%.
For COCC1CN(C(C)=O)CC12CCN(Cc1ccc(OC)c(C)c1)CC2 (stereo not drawn) the results were NPR1 antag -1%.
Screening COc1cccc(NC(=O)Cn2nc3c(cc2=O)CCCCC3)c1 returned NPR1 antag 7%.
Screening CCC1(C(=O)NCCc2ccccc2)CCCCC(=O)N1 (stereo not drawn) returned NPR1 antag 0%.
For CN(C)c1cccc(NC(=O)c2ccc3c(c2)NC(C)(COc2ccccc2)CO3)c1 (stereo not drawn) the results were NPR1 antag -1%[70.6 µM].
For Cc1ccc(C)c(C(=O)N2CC(C(=O)NC3CCCCC3)C3(CCOCC3)C2)c1 (stereo not drawn) the results were NPR1 antag 2%.
For CN(CC1(c2ccccc2)CC1(C)C)C(=O)c1cn(C/C=C/c2ccccc2)nn1 (stereo not drawn) the results were NPR1 antag 2%.
O=c1n(-c2ccc([N+](=O)[O-])cc2)nc2n1CCN(Cc1ccccc1)C2 was read as NPR1 antag -22%.
`CNC(=O)NC[C@H]1CCN(Cc2ccc(C#N)cc2)C[C@H]1N(C)C` gave NPR1 antag -1%.
Screening CC(C)(C)NC(=O)N1CCCN(S(=O)(=O)c2ccccc2)CCC(=O)NCC1 returned NPR1 antag 4%.
Screening CC(=O)N1CCN(c2nc(-c3c(C)noc3C)cc3cc(CN(C)C)oc23)CC1 returned NPR1 antag 6%[70.6 µM].
Screening COc1ccc(-c2[nH]nc3ncc(-c4ccc(OC)nc4)nc23)c(C)c1 returned NPR1 antag 4%[70.6 µM].
For CN1C(=O)[C@@H]2C[C@@H](CN2C2COC2)Oc2ccccc21 the results were NPR1 antag -10%[70.6 µM].
Screening O=C(c1cccc(F)c1)N1CCCN(c2cc(-c3ccc(F)cc3)[nH]n2)CC1 returned NPR1 antag -1%.
Cc1noc([C@@H]2CN(C(=O)c3ccco3)C[C@H]2COCC2CC2)n1 was read as NPR1 antag 2%.
Screening Cc1cccnc1C(=O)N[C@@H]1CN(C2CCOCC2)C[C@H]1CN(C)C returned NPR1 antag 6%.
`CN(C)c1ccc(CN2C[C@H](O)C[C@H]2c2nc(-c3ccc(C(F)(F)F)cc3)no2)cc1` gave NPR1 antag 1%[70.6 µM].
`CC(C)c1noc(CC2CCN(C(=O)c3ccsc3)CC2)n1` gave NPR1 antag -23%.
Screening Cc1ccccc1[C@H]1[C@@H](C(=O)NCCn2ccnc2)C[C@@](C)(C(=O)O)N1C returned NPR1 antag 0%.
Screening CN1CCN(Cc2nc(C3(O)CCN(C(=O)N4CCOCC4)CC3)cs2)CC1 returned NPR1 antag 5%[70.6 µM].
For CN1CC2(CCN(C(=O)c3ccc4ccccc4n3)CC2)CC1C(=O)N1CCOCC1 (stereo not drawn) the results were NPR1 antag 3%.
CCOc1ccc(NC(=O)N2CC(C(=O)N(C)C)C3(CCOCC3)C2)cc1 (stereo not drawn) was read as NPR1 antag 1%.
Cc1noc(-c2ccn3c(CNC(=O)c4cccc(N(C)C)c4)nnc3c2)n1 was read as NPR1 antag -4%.
`O=C1CC2(CCN(c3nc(-c4ccccc4)no3)CC2)CN1Cc1ccccc1` gave NPR1 antag inconclusive.
`C=CCCC(CN1CCCOCC1)Oc1nccc(C)n1` (stereo not drawn) gave NPR1 antag 3%.
COCCn1c(C)nnc1-c1cc(-c2cccc(F)c2)ccn1 was read as NPR1 antag -2%[70.6 µM].
Screening CCCN(C)C(=O)c1cc(-c2ccncc2)cn1Cc1ccccc1C returned NPR1 antag -9%.
COCCNC(=O)NC[C@H]1O[C@@H]2C[C@@H](CC(=O)N3CCOCC3)O[C@@H]2[C@@H]1O was read as NPR1 antag 0%[70.6 µM].
Cc1nc([C@H]2CCNC[C@H]2NC(=O)C2CC2)n[nH]1 was read as NPR1 antag -1%.
O=C(c1ccccc1F)N1CCCN(c2cc(-c3ccc(Cl)cc3)[nH]n2)CC1 was read as NPR1 antag inconclusive.
`CS(=O)(=O)N1CCC(C2CCN(C(=O)c3ccc(F)c(F)c3)C2)CC1` (stereo not drawn) gave NPR1 antag 5%.
